Bioassay records as filed in PubChem BioAssay.
LANA-H2A inh – blocks KSHV LANA binding to histone H2A/H2B; Q9QR71; cell-free LANA-H2A/H2B peptide, fluorescence polarization; inhibition, % (concentration not given with the values); 320,000 tested, 0.6% active; AID 2629; in the data active means inhibition mostly above about 10%, no sharp cut-off; inactive means mostly below about 6.7%;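 further: stock transfer was 7.5 nL into about 10 µL; 0% = median of vehicle wells and 100% = median of positive control wells; one replicate is shown; the record names a cut of 25% in any replicate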
Calb FLC – C. albicans growth modulation with fluconazole | C. albicans CaCi-2 (fluconazole-resistant clinical isolate) + fluconazole, Alamar Blue growth, 48 h | AID 1979 | 300,000 tested, 0.57% active | growth inhibition, % (no concentration beside the values);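 active means most replicates above 75%; inconclusive means exactly half above 75%; inactive means most below 75%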;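 further: all wells also contain fluconazole at 8 µg/ml as a sub-toxic cotreatment; 0% = median of DMSO wells and 100% = median of geldanamycin control wells; wells of about 8 µL received 7.5 nL stock; the first replicate is given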
RanGTP-Impb inh – disruptors of Ran-importin-beta complex formation – biochemical, FRET, CFP-Ran, YFP-importin-beta, homogeneous, primary screen. cell-free CFP-Ran/YFP-importin-beta FRET ratio. 300,000 tested, 1.1% active. inhibition, % (concentration not given with the values);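 active means most replicates above 15%; inconclusive means exactly half above 15%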;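 further: 0% = DMSO wells and 100% = Ran loaded with GDP instead of GTP; wells of about 40 µL received 100 nL stock; the first replicate is given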
T cruzi repl – T. cruzi replication inhibition; 300,000 tested, 1.4% active; inhibition, % (no concentration beside the values); T. cruzi beta-gal in NIH3T3, luminescence, 90 h;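 active means mean inhibition across valid replicates above about 55%, limit read from the data; inconclusive means mean below that limit but half or more replicates reach it; inactive means mean below it, under half of replicates reach it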;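 further: signal also drops with host cell toxicity which is not excluded here; 0% = plate median of DMSO wells and 100% = zero luminescence signal; higher percent means less beta-gal luminescence so fewer parasites; stock transfer was 50 nL into about 50 µL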
A1 inh – inhibitors of the anti-apoptotic protein A1, read as caspase activation; MEF A1-2A-BIM cells, Caspase-Glo 3/7 luminescence, 3 h; percent of clofoctol response, vehicle zero; caspase activation, % (test concentration not listed); 330,000 tested, 0.066% active;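 active means over half of replicate activation scores above 10%, or exactly half above 10 with the replicate mean above 10; inconclusive means replicate mean below 10 yet half the replicates above 10; inactive means over half of replicates below 10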;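 further: wells of about 30 µL received 50 nL stock; many hits fall short of the cut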
Beta apoptosis – blocks beta cell apoptosis; protection from apoptosis, % (no concentration beside the values); AID 435005; INS-1E cytokine-induced death, ATP luminescence, 48 h; percent of positive-control rescue, neutral wells zero; 300,000 tested, 0.8% active;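 active means all replicates at 75% or more, or half of them and the mean; inconclusive means half reach 75% but not the mean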;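 further: 0% = cytokine-treated negative control wells and 100% = positive control rescue; higher means more ATP so stronger rescue from cytokine killing; wells of about 40 µL received 100 nL stock; the first replicate is given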
UCH37 DUB inh – blocks the human deubiquitinase UCH37; Q9Y5K5; purified proteasome/UCH37, Ub-AMC cleavage fluorescence; inhibition, % (no concentration beside the values); 330,000 tested, 0.33% active; AID 588478;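 active means mean of two replicates above 20%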;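 further: 0% = compound-free wells with enzyme and 100% = wells lacking proteasome; stock transfer was 100 nL into about 20 µL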
Target sequence (Q9Y5K5 whole entry, looked up): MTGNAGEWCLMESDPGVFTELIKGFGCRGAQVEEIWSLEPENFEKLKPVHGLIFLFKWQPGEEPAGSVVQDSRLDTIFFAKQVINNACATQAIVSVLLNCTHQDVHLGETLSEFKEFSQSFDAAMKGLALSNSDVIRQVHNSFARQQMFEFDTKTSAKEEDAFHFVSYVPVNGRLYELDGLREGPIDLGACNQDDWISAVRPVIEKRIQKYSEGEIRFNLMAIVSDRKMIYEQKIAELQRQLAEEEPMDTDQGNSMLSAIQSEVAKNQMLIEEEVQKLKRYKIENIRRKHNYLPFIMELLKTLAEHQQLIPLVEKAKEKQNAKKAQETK
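Test system – human UCH37 enzyme supplied as purified proteasome complex · Incubation – 30 min preincubation with enzyme, 25 min cleavage at room temperature · Detection – AMC fluorescence from Ub-AMC cleavage, excitation 355 nm, emission 460 nm · Benchmarks – no-proteasome wells (full inhibition) and compound-free wells (no inhibition)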
Beta2AR agonist – agonists of human beta-2 adrenergic receptor inducing internalization. 340,000 tested, 0.43% active. response, % (test concentration not listed). Am2.2-beta2AR cells, FAP receptor internalization, flow cytometry; reference of the scale not given here. P07550;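 active means response above a set limit, near 3 SD of response in nonfluorescent compounds, cut at about 42% in these data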;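 further: stock transfer was 100 nL into about 11 µL; a reference agonist was the positive control; negative values mostly stem from fluorescent compounds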
Target sequence (P07550 whole entry, looked up): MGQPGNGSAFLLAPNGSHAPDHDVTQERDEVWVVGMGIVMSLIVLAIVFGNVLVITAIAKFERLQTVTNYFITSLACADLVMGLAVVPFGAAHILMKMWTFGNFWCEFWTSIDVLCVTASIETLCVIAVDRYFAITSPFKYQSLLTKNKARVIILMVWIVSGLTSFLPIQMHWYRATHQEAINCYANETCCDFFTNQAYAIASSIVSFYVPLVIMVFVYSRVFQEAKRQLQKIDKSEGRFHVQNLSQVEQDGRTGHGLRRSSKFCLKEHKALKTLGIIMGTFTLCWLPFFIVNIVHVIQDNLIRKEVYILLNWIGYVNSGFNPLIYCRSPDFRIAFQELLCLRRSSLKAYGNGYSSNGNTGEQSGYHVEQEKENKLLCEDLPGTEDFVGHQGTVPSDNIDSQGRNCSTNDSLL
Active calls of the source: *; ? = inconclusive; . = not tested or not shown.

# | Compound | LANA-H2A inh | Calb FLC | RanGTP-Impb inh | T cruzi repl | A1 inh | Beta apoptosis | UCH37 DUB inh | Beta2AR agonist
1 | CC(C)NS(=O)(=O)c1ccc(OCC(=O)N2CCc3ccccc3C2)cc1 | 4.5 | 5 | 1.9 | -3 | 0.7 | 1 | 2.3 | 3
2 | Cc1ccc(Cn2cc(/C=C/C(=O)O)c(-c3ccccc3)n2)cc1 | 1.7 | 8 | 1.9 | -7 | 0.2 | -1 | 0.4 | 4
3 | Cc1ccc(NC(=S)N2CCCCC2CO)cc1C (stereo not given) | -4.5 | -24 | 0.3 | -20 | 0.9 | -4 | 5.6 | 5
4 | Cc1ccc(NC(=S)NCc2ccccc2)cc1[N+](=O)[O-] | 6.4 | 14 | 2.5 | -1 | -0.1 | 1 | 3.6 | 2
5 | Cc1ccc(-n2c(C)nc3c(cnn3-c3ccccc3Cl)c2=O)cc1C | -0.5 | -4 | 4.8 | 9 | 0.7 | -12 | 4.1 | 5
6 | COc1ccc(C(=O)N(Cc2nc(-c3ccc(C)cc3)no2)C2CCCCC2)cc1OC | -0.4 | 41 | -11 | 8 | 1.6 | 2 | -1.2 | -5
7 | Nc1nc(SCc2c(Cl)cccc2Cl)n[nH]1 | -6.8 | -7 | -0.8 | 0 | 0.7 | 0 | 0.8 | -1
8 | O=C(c1ccc(S(=O)(=O)N2CCC(c3nc4ccccc4[nH]3)CC2)cc1)N1CCOCC1 | 1.9 | -14 | 1.8 | 6 | -0.3 | . | 2.2 | -2
9 | C/C(=N\NC(=O)c1c(Cl)cnn1C)c1ccc(NC(=O)c2ccncc2)cc1 | 0.1 | 4 | -2.8 | -9 | -0.5 | 0 | . | 0
10 | CCOc1ccc(-c2cc(CCCC(=O)N3CCN(c4ccc(OC)cc4)CC3)no2)cc1 | 3.2 | 0 | -1.2 | 11 | 0.3 | -3 | -1.7 | 0
11 | CC1=C(C(=O)OC(C)C)C(c2ccc3c(c2)OCO3)NC(=O)N1 (stereo not given) | -2.2 | -6 | 5.7 | 0 | 0.8 | -1 | -0.3 | -2
12 | COc1ccccc1N1CCN(C(=O)C(=O)c2cn(CC(=O)N3CCCC3)c3ccccc23)CC1 | -9.0 | -6 | 3.5 | 9 | -0.1 | -6 | 3.4 | -6
13 | O=C(CN1C(=O)S/C(=C\c2cccs2)C1=O)Nc1ccc(O)cc1C(=O)O | -0.1 | -4 | 7.6 | -27 | 0.3 | 0 | 14 | -11
14 | CCN(CC(=O)Nc1c(F)cccc1F)C(=O)c1cc([N+](=O)[O-])ccc1N1CCCCC1 | 0.8 | 0 | -2.7 | 7 | 0.4 | . | 6.4 | -2
15 | Cc1cc2nsnc2c(S(=O)(=O)N2CCN(C)CC2)c1C | -0.5 | 5 | 3.7 | -1 | 0.3 | -1 | 7.0 | -6
16 | O=C(NC1CCCCC1)c1ccc2c(c1)S(=O)(=O)c1ccccc1C2=O | 0.8 | 7 | -0.2 | 10 | -3.0 | 1 | -1.4 | 16
17 | CSc1nc2c(ccc3ccccc32)o1 | -0.9 | -14 | -2.9 | -3 | -1.7 | -3 | 1.7 | 4
18 | Cc1ccc(O)c(C(=O)c2cnc3c(c2)CN(C)C(=O)N3)c1 | 2.5 | -14 | 7.3 | -61 | -0.2 | -11 | 0.9 | -3
19 | COc1ccc(CC(=O)OCC(=O)N2CCCC(C)C2)cc1 (stereo not given) | 3.2 | -2 | 6.2 | -2 | 0.9 | -3 | -1.0 | -6
20 | CCN(CC)CCCNC(=O)c1oc2ccc3c(c2c1C)C(O)CC(C)(C)O3 (stereo not given) | -1.2 | -1 | -3.2 | -12 | 1.2 | -2 | -45 | -3
21 | CCCP(=O)(CCC)CCP(=O)(c1ccccc1)c1ccccc1 | -0.8 | -34 | ? | -11 | 2.0 | -11 | 2.1 | 10
22 | O=C(Nc1ccccc1)OC1CCS(=O)(=O)C1 (stereo not given) | -1.9 | 3 | -1.9 | -7 | -0.9 | -4 | 3.8 | 4
23 | CCN(c1cc(C)cc(C)c1)S(=O)(=O)c1nnc(NC(=O)C(C)C)s1 | -2.2 | 1 | 4.8 | 4 | 0.2 | -8 | 5.0 | 0
24 | Cc1ccc(C)n1-c1ccc(C(=O)O)cc1 | 3.5 | 10 | -2.5 | -8 | 0.9 | . | . | .
25 | N#Cc1cc(Oc2cccc3cccnc23)c(-n2nnc3ccccc32)cc1C#N | 0.3 | 1 | 21* | 57* | -0.3 | 10 | 2.3 | 13

Next part.
# | Compound | LANA-H2A inh | Calb FLC | RanGTP-Impb inh | T cruzi repl | A1 inh | Beta apoptosis | UCH37 DUB inh | Beta2AR agonist
26 | Cc1nc(=O)c(-c2ccccc2)c(C)n1-c1ccc(S(N)(=O)=O)cc1 | -0.9 | -3 | 3.5 | -10 | 0.3 | -4 | -1.3 | -4
27 | COc1ccc(NC(=O)/C(=C\c2ccc(OC)c(OC)c2)NC(=O)c2ccco2)cc1 | 0.1 | -14 | -1.4 | 5 | 1.2 | -1 | 11 | -4
28 | S=C(Nc1cccc2ccccc12)N1CCN(c2ncccn2)CC1 | -1.7 | 1 | -0.1 | -24 | -0.9 | -9 | 5.9 | 2
29 | CCCN1C(=O)C(O)(C2COC(C)(C)CC2=O)c2ccccc21 (stereo not given) | -0.6 | 0 | 1.2 | -16 | 1.4 | -4 | 1.0 | -3
30 | CCC(=O)c1ccc(OCc2ccc(C#N)cc2)cc1 | 2.9 | -4 | -2.3 | 7 | -0.6 | 2 | 3.8 | -2
31 | COc1ccc(-c2csc(NC(=O)CS(=O)(=O)c3ccccc3)n2)cc1 | 4.5 | 0 | 2.5 | -12 | -0.4 | 4 | -3.4 | -4
32 | CCCCNC(=O)CCNC(=O)c1ccc(C(C)(C)C)cc1 | -2.1 | 3 | 3.8 | 13 | 0.5 | 0 | 1.4 | -5
33 | Cc1ccc(NC(=O)N2CCN(C(=O)C3CCCO3)CC2)cc1 (stereo not given) | -7.6 | -5 | 4.2 | -10 | 0.9 | 0 | 1.5 | 2
34 | Cc1cc(C(F)(F)F)nn1CC(=O)Nc1ccc(Br)c2cccnc12 | -0.4 | 21 | -0.8 | 0 | 0.0 | 0 | 6.0 | -4
35 | CCOC(=O)c1[nH]c(C)c(C(=O)OCC(=O)NC2CCS(=O)(=O)C2)c1C (stereo not given) | -3.5 | 0 | 1.6 | 0 | 0.5 | -5 | 2.2 | 1
36 | Cc1ccc2c(CN(C)Cc3cccc(F)c3)cc(=O)oc2c1 | -7.1 | 2 | 0.1 | 24 | 0.1 | 4 | 6.1 | -4
37 | CCN(CC)CCOC(=O)C(Cc1cccc2ccccc12)CC1CCCO1 (stereo not given) | -4.7 | -4 | -0.7 | 16 | 0.7 | -4 | 2.2 | -5
38 | Cc1ccc(S(=O)c2ccc(C)cc2)cc1 | -5.8 | 0 | 1.7 | 4 | -0.9 | -3 | -2.3 | 2
39 | CCCCC(=O)N1CCCC(C)C1 (stereo not given) | 1.1 | 10 | 3.5 | -5 | -0.2 | -6 | 1.7 | 0
40 | Cc1ccc(C(=S)N2CCN(Cc3ccccc3)CC2)s1 | -4.5 | 1 | -2.1 | -6 | 0.9 | -4 | 0.9 | -6
41 | Cc1nn(C(=O)N2CCOCC2)c(C)c1CN1C(=O)c2ccccc2C1=O | -1.1 | -9 | -1.3 | -18 | 0.1 | 2 | 1.5 | -8
42 | CC1CCCN(C(=O)NC2CC(=O)N(c3ccc4c(c3)OCCO4)C2)C1 (stereo not given) | 5.1 | -7 | 1.9 | 2 | 0.3 | . | 2.1 | -2
43 | Cc1cccc(NC(=O)CN2C(=O)S/C(=C\c3ccc(O)c([N+](=O)[O-])c3)C2=O)c1 | 1.3 | 3 | -6.5 | 17 | -1.7 | . | 16 | 10
44 | COc1cccc(NC(=S)NCc2cccs2)c1 | 4.1 | 3 | -3.3 | 0 | -0.7 | -7 | -0.9 | -2
45 | Cc1ccc(OCC(=O)N(C)CC(=O)Nc2ccccc2Cl)c([N+](=O)[O-])n1 | 5.4 | . | . | . | -0.7 | 0 | 2.2 | -4
46 | CC(NS(C)(=O)=O)C(c1cccs1)N1CCN(c2ccccc2F)CC1 (stereo not given) | -4.1 | 2 | 1.5 | -14 | 1.0 | -3 | 4.7 | -7
47 | CC(=O)Nc1ccc(CN2CCCC(C(=O)c3cccc(C(F)(F)F)c3)C2)cc1 (stereo not given) | -1.7 | -7 | -1.0 | 20 | -0.3 | 2 | 0.7 | -8
48 | O=C(NCCCN1CCCC1=O)C1CCN(S(=O)(=O)c2cccc(Cl)c2Cl)CC1 | 7.5 | . | . | . | -0.1 | -1 | 1.9 | -1
49 | COc1ccc(S(=O)(=O)N2CCOCC2)cc1NC(=O)c1cc2c(s1)CCCC2 | -2.6 | -22 | 2.9 | 8 | 1.2 | 3 | 4.7 | 1
50 | N#Cc1c(SCC(=O)Nc2nc3ccc(Br)cc3s2)sc2c(O)cc(=O)[nH]c12 | 2.0 | 16 | 2.8 | -5 | 0.6 | 3 | . | 12

The results go on.
# | Compound | LANA-H2A inh | Calb FLC | RanGTP-Impb inh | T cruzi repl | A1 inh | Beta apoptosis | UCH37 DUB inh | Beta2AR agonist
51 | COc1cc(Cl)ccc1OCc1cc(C(=O)N(C)C2CCOC2)no1 (stereo not given) | -0.7 | -5 | 2.9 | -2 | -1.3 | . | -0.6 | -7
52 | COc1ccc(NC(=O)C(=O)Nc2cccc3ccccc23)c(OC)c1 | -4.9 | 0 | 1.8 | -7 | -2.2 | -3 | 1.1 | 1
53 | COCCNC(=O)C(=O)NCC(c1ccc2c(c1)OCO2)N1CCN(c2ccc(F)cc2)CC1 (stereo not given) | 3.4 | 27 | 3.9 | -9 | -0.5 | -5 | 1.5 | -4
54 | COc1ccc(S(=O)(=O)N2CCCCCC2)cc1NC(=O)c1ccccc1 | 0.9 | -9 | 2.5 | 11 | -0.9 | -2 | 0.2 | 0
55 | Oc1c(C=C2N=c3ccccc3=N2)sc(=S)n1-c1ccccc1 | -2.3 | 0 | -1.0 | -3 | 0.2 | -1 | 11 | 0
56 | CC(=O)Cn1ncc(Br)c(Br)c1=O | . | 11 | 1.6 | 56* | . | . | 1.9 | 11
57 | N=C1S/C(=C\c2ccco2)C(=O)N1c1ccc2c(c1)OCO2 | 1.7 | -6 | -3.2 | -2 | 0.3 | -6 | 6.6 | -6
58 | COc1ccccc1N1CCN(C(c2cccs2)c2nnnn2C2CCCC2)CC1 (stereo not given) | -7.6 | -4 | -8.3 | 11 | 0.2 | 0 | 0.7 | -4
59 | COCCSc1nnc(NC(=O)C2CCN(C(=O)c3ccco3)CC2)s1 | -4.4 | -2 | 7.6 | -4 | 0.0 | -6 | 1.0 | 4
60 | CC(C)=CC(=O)OCC(=O)Nc1ccc(Cl)cn1 | 17 | -1 | -6.8 | -1 | 0.2 | -9 | 3.2 | 4
61 | COc1ccc(OC)c(NC(=O)C2CCN(S(C)(=O)=O)CC2)c1 | 0.7 | 11 | 4.0 | -15 | 1.0 | -2 | -1.2 | -2
62 | CC1=C(C(=O)NCc2ccccn2)C2(CCC(C)CC2)OC1=O (stereo not given) | 3.5 | -1 | -2.8 | -1 | 1.6 | -5 | 3.3 | -2
63 | CN(C)C1=NC[C@H](Cc2ccccc2)N1CCC1CCCC1 | -1.1 | . | . | . | -0.1 | 10 | 1.1 | 12
